Bioassay records (PubChem)
VACV mCherry inh: qHTS for Stage-Specific Inhibitors of Vaccinia Orthopoxvirus: mCherry Reporter Primary qHTS; Vaccinia virus mCherry reporter infection, fluorescence; about a quarter of the inactives have no number; Potency, µM (doses to about 36.5 µM), for the others: top-dose activity change, negative = inhibition, actives largely listed as inhibitors; 0.63% of 310,000 active; AID 720579, 2013; active = well fitted inhibition curve with a large enough effect; inconclusive = small, poorly fitted or top-dose-only effect; inactive = no such curve, though single readings can be large or run the other way; tested in A549 cells; further: nearly all actives have a fitted effect of over 35% in size; inactives centre near -10
Vaccinia Venus: qHTS for Stage-Specific Inhibitors of Vaccinia Orthopoxvirus: Venus Reporter Primary qHTS; Potency, µM (highest dose often 36.5 µM), for the others: at the top dose activity change, negative = inhibition, usual class: inhibitors; 0.46% of 330,000 active; Vaccinia virus Venus reporter expression, fluorescence; active means well fitted inhibition curve with a large enough effect; inconclusive means small, poorly fitted or top-dose-only effect; inactive means no such curve, though single readings can be large or run the other way; tested in A549 cells; further: nearly all actives have a fitted effect of over 30% in size; inactives centre near -10
Starred values were filed as active, the others as inactive; i = inactive; ? = inconclusive; · = no result given; & = joins results of further samples; [ ] = another dose, or the depositor's remark. On the % scale 0 is the no-effect control and ±100 the full control effect; potency means the concentration at half of the fitted maximal effect.

SMILES | VACV mCherry inh | Vaccinia Venus
CCOc1ccc2c(c1)C(C)=CC(C)(C)N2 | -2% | -7%&-14%
CCOc1ccc(S(=O)(=O)NCCC(=O)Nc2cccc(C(=O)OC)c2)cc1 | -24% | -12%
O=C(O)c1cccc(S(=O)(=O)N2CCCC2)c1 | -11% | -4%
COc1ccc2c(c1)c1c(c(=O)n(-c3ccccc3)c(=O)n1CC(=O)NCCC1=CCCCC1)n2C | -8% | -19%
c1ccc(CNc2ncnc3[nH]ncc23)cc1 | -23% | -7%&0%
Cc1cccc(N(C(=O)Cn2nnc3ccccc32)C(C(=O)NCc2ccco2)c2ccncc2)c1 (stereo not drawn) | · | -14%
Cc1ccc(/C=N/NC(=O)CNC(=O)COc2ccccc2)o1 | -5% | -9%
C[C@@H](C(=O)Nc1ccccc1N1CCOCC1)N1C(=O)C2CC=CCC2C1=O (stereo partly drawn) | · | -16%
CC1(C(=O)Nc2ccc3c(c2)OCO3)CCN1C(=O)CCc1ccc(Cl)cc1Cl (stereo not drawn) | i | -2%
COC(=O)[C@]12CCCCC=C1N(Cc1ccccc1)C(=O)[C@H](CC(=O)N1CCCCC1)C2 | 20% | -2%
CC(C)(C)C(=O)Nc1cccc(-c2nnc(-c3cccc(NC(=O)C(C)(C)C)c3)o2)c1 | · | -9%
CCN(CC)C(=O)c1ccccc1NS(=O)(=O)c1ccc(OC)c(C(=O)N2CCOCC2)c1 | 6% | 5%
COc1ccc(N2CCN(C(=O)Cn3ncc4c([nH]c5ccccc54)c3=O)CC2)cc1 | i[7.34 µM] | 1%[7.34 µM]
CCOC(=O)CC1C(=O)NCCN1C(=O)c1cccc(C(F)(F)F)c1 (stereo not drawn) | · | -4%
Cc1cc(N2CCN(CC(O)C(F)(F)F)CC2)c2ccccc2n1 (stereo not drawn) | i | -26%
Cc1cnc(NC(=O)c2ccc3c(c2)C(=O)N(Cc2ccco2)C3=O)s1 | · | 6%
O=C(O)c1ccc(-c2nc3scc(-c4ccccc4)c3c(=O)[nH]2)cc1 | -14% | -5%
CN(c1ccccc1)S(=O)(=O)c1ccc(NC(=O)c2cc(=O)c3ccccc3o2)cc1 | -8% | -2%
COc1cccc2cc(C(=O)NCC3CCCO3)c(=O)oc12 (stereo not drawn) | -14% | -5%
COC(=O)Cc1ccc(OC(=O)CCS(=O)(=O)c2ccc(C)cc2)cc1 | i | -17%
CS(=O)(=O)c1ccc(-c2cccc(NC(=O)c3ccco3)c2)nn1 | -28% | ?
CC(=O)Nc1ccc(S(=O)(=O)Nc2nc3cc4c(cc3nc2Cl)OCCO4)cc1 | 43%[activator] | 10%
C#CCNC(=O)C[C@@H]1C[C@@]2(C(=O)OCC)CCC=C2N(Cc2ccc(Cl)cc2Cl)C1=O | -11% | -8%
CC(C)c1ccc(/C=C/C(=O)NCc2ccc(S(N)(=O)=O)cc2)cc1 | -1% | 0%
CC(C)C[C@@H](CC#N)N1CCN(Cc2ccccc2)CCC1=O | -9% | 0%&-7%
O=C(CN1CCN(S(=O)(=O)/C=C/c2ccccc2)CC1)NC(=O)NCc1ccco1 | -21% | -12%
COC(=O)c1ccc(S(=O)(=O)N2CCc3ccccc32)cc1 | -14% | -3%
O=C1CCCc2c1cc(C(=O)NC1CCSC1=O)c(=O)n2-c1ccccc1 (stereo not drawn) | · | -17%
CC(=O)c1sc(N/N=C/c2ccc(C(C)C)cc2)nc1C | -14% | -5%
C=CCn1c(SCC(=O)c2ccccc2)nnc1-c1ccc2c(c1)OCO2 | -5% | -19%
Cc1ccc(C(=O)c2oc3ccccc3c2NC(=O)Cc2coc3cc(C)ccc23)cc1 | 0% | -16%
O=C(c1ccc(S(=O)(=O)N2CCCCCC2)cc1)N1CCN(c2ccccc2)CC1 | -22% | -4%
COc1ccc(OC)c(CCNC(=O)c2sc3nc4n(c(=O)c3c2C)CCC4)c1 | -17% | -14%
O=C(CN1C(=O)NC2(CCCC2)C1=O)Nc1nc2ccc(F)cc2s1 | -5% | -19%
COc1cccc(-c2c(C(=O)N/N=C(\C)c3cccnc3)nnn2-c2nonc2N)c1 | i[7.34 µM] | -5%[7.34 µM]
CNC(=S)N(CCc1ccc(OC)c(OC)c1)C1CC(=O)N(c2ccccc2)C1=O (stereo not drawn) | i | -9%

Compounds listed so far with a thiophene ring, fused or not, in the order listed:
SMILES | VACV mCherry inh | Vaccinia Venus
O=C(O)c1ccc(-c2nc3scc(-c4ccccc4)c3c(=O)[nH]2)cc1 | -14% | -5%
COc1ccc(OC)c(CCNC(=O)c2sc3nc4n(c(=O)c3c2C)CCC4)c1 | -17% | -14%

Next section
SMILES | VACV mCherry inh | Vaccinia Venus
C=CCOc1cccc(CNn2nnnc2N)c1 | -25% | -3%
CC(C)c1nc(SCC(=O)Nc2cccc(C(=O)O)c2)c2c3c(sc2n1)CCCC3 | -18% | -3%
Nc1ccc(Br)cc1-c1nc2ccccc2[nH]c1=O | ? | -12%
CCC1CCCCN1S(=O)(=O)Cc1ccccc1Cl (stereo not drawn) | ? | -8%
C[C@H](CO)N1C[C@H](C)[C@@H](CN(C)Cc2ccccn2)Oc2ncc(Br)cc2C1=O | -23% | -10%
COc1cc2nc(CN(C)Cc3ccc(OC)c(OC)c3OC)[nH]c(=O)c2cc1OC | -1% | -9%
O=C(Nc1ccc(F)cc1)C1CCCN1S(=O)(=O)c1ccc(Br)cc1 (stereo not drawn) | i | -25%
COc1cccc(CSc2nc3n(n2)C(c2ccccc2C)C(C(=O)Nc2ccccc2OC)=C(C)N3)c1 (stereo not drawn) | -20% | -18%
CC(=O)Nc1ccc(S(=O)(=O)N2CCC(NC(=O)C(Cc3ccccc3F)NC(C)=O)CC2)cc1 (stereo not drawn) | i | 9%
Cc1ccc(C)c(N(CC(=O)N2CCCC2)S(C)(=O)=O)c1 | i | -8%
CCN(CC)CCNc1ccc(C)c2sc3ccc(O)cc3c(=O)c12 | ? | ?
Cc1cc(C)cc(NC(=O)c2sc3nc(-c4cc5ccccc5oc4=O)[nH]c(=O)c3c2C)c1 | -10% | -6%
Cc1ncsc1C(=O)N1N=C2/C(=C/c3ccccc3)CCCC2C1c1ccccc1 (stereo not drawn) | -24% | -14%
Cc1cc(=O)oc(C)c1C(=O)Nc1cnc2ccccc2c1 | -10% | 4%
O=C(/C=C/c1ccc([N+](=O)[O-])cc1)c1cccnc1 | i | -15%
CN(C/C(O)=C(\C#N)c1ccccc1)C1CCCCC1 | · | 14%
CC1=C(C(=O)OCc2ccccc2)C(c2ccc([N+](=O)[O-])cc2)NC(=O)N1CCCCCC(=O)O (stereo not drawn) | -2% | -2%
CCCCCn1c(SCc2ccncc2)nc2cc(C(=O)NCc3ccco3)ccc2c1=O | ? | ?
CN(C)c1ccc(C(CNC(=O)c2cccc(C(F)(F)F)c2)N2CCCC2)cc1 (stereo not drawn) | -18% | -16%
CN1CCN(C(=O)C2=C[C@@H](C3CCCCC3)C[C@@H](OCCCCO)O2)CC1 | i | -12%
COC(=O)c1sc(-c2ccccc2)cc1NC(=O)c1ccc(F)cc1 | -16% | -8%
COc1ccc(-c2noc(-c3nnn(-c4ccc(C)cc4C)c3C)n2)cc1 | 2% | 3%
C#CCN1[C@@H]2CCN(C2)c2cc(Br)ccc2S1(=O)=O | i | -14%
O=C1CCc2cc(S(=O)(=O)Nc3ccccc3F)ccc2N1 | -13% | 0%
CCOC(=O)c1c(C)c(C(=O)NC2CCCCC2)c(C)n1CC | ? | -7%
CCc1nc2c(OCC(=O)C(C)(C)C)cccn2c1N(C)C(=O)c1cccs1 | i | -9%
C=CCOc1ccc(C(=O)NC2CCCCC2)cc1 | -11% | -24%
CCOc1ccccc1CN1CCN(Cc2csc(C(C)=O)c2)CC1CCO (stereo not drawn) | i | -12%
O=C1CC(c2c(Cl)cccc2Cl)c2c(ccc3ccccc23)N1 (stereo not drawn) | -5% | -18%
CCOC(=O)Cn1c2ccccc2c2nc(C)sc21 | i | -3%
CCN(C(=O)Cn1nc(Cc2cccnc2)c2ccccc2c1=O)c1ccccc1F | -18% | -4%
Cc1nnc(NC(=O)C(C)Sc2nnc(CCNC(=O)c3ccccc3F)n2C)s1 (stereo not drawn) | -8% | -2%
CC(NC(=O)c1ccc([N+](=O)[O-])o1)C12CC3CC(CC(C3)C1)C2 (stereo not drawn) | ? | ?
COc1ccc(-c2c(C)sc(NC(=O)c3ccnn3C)c2C#N)cc1 | ? | -21%
Cc1cc(C)n2nc(SC(C)C(=O)NCc3ccco3)nc2n1 (stereo not drawn) | -15% | -2%
Cc1ccc(NC(=O)/C(=C\C=C\c2ccccc2)NC(=O)c2ccccc2)cc1 | -25% | -13%
COc1ccc(CCNC(=O)CSc2nc3[nH]ncc3c(=O)n2-c2cccc(C(F)(F)F)c2)cc1OC | -14% | -18%
CCOC(=O)C1CCCN(c2c(N3CCN(C)CC3)c(=O)c2=O)C1 (stereo not drawn) | i | -6%
COc1ccc(Br)cc1/C=N/NS(=O)(=O)c1ccccc1 | -20% | ?
O=C(O)C1CC(C(=O)O)SS1 (stereo not drawn) | ? | -13%
C=CCc1cc(Cl)ccc1OCCOCCNC(C)CC (stereo not drawn) | -6% | 4%
CCOc1cc(NC(=S)NCC2CCCO2)c(OCC)cc1NC(=O)c1ccc(F)cc1 (stereo not drawn) | -27% | -13%
CCCCn1c(CN(Cc2ccccc2)Cc2ccccc2)nc2c1c(=O)n(C)c(=O)n2C | -8%[1.46 µM] | -7%
C1CCc2nc3c(nc2C1)CCCC3 | 29% | 1%
O=C(c1csc2c1CCCCC2)N1CCC2(CC1)OCCO2 | -14% | -12%
CCCC(=O)c1ccc(N2CCCCCC2)c(F)c1 | · | -18%
COCCNC(=O)CCc1c(C)n(C)c2cc(-c3cc(OC)c(OC)c(OC)c3)nn2c1=O | -9% | -5%
CCC(CO)Nc1ccn2nc(-c3cccs3)cc2n1 (stereo not drawn) | -9% | -7%
COc1ccc(C(=O)N/C=C/n2cnc3cc(C(F)(F)F)ccc32)cc1 | -5% | -1%
COc1ccccc1N(CC(=O)N/N=C(\C)c1cccc(Br)c1)S(C)(=O)=O | -7% | -12%
O=C(NCc1ccccc1)C(c1ccccc1F)n1c(=O)c(-c2cc3ccccc3[nH]2)nc2ccccc21 (stereo not drawn) | -2% | -17%
Cc1ccc(C)c(NC(=S)N2CCC(NC(=O)c3cccc(F)c3)CC2)c1 | -4% | -5%
COc1cccc(C(=O)N2CCSC2=S)c1 | -30%[1.46 µM] | -21%
Cc1cc(NC(=O)CN2C(=O)NC3(CCCCC3)C2=O)ccc1N1CCCC1 | -13% | -4%
S=c1[nH]nc(COc2cccc(Cl)c2)n1Cc1ccccc1 | i | -9%
CCCN(C(=O)/C=C/c1nc2ccccc2s1)C1CCS(=O)(=O)C1 (stereo not drawn) | -25% | -9%
Cc1cc(C)c(S(=O)(=O)c2ccc(Cl)cc2C)c(Cl)n1 | i | 4%
CCOC(=O)c1sc(NC(=O)CSc2n[nH]c(-c3ccncc3)n2)c(C#N)c1C | ? | -26%
Cc1ccccc1C(=O)/C(C#N)=N/Nc1c(C)n(C)n(-c2ccccc2)c1=O | ? | ?
Nc1cc(Cl)nc(N/N=C/c2ccccc2[N+](=O)[O-])n1 | -6% | -17%

A draw from above in order of formula weight, falling:
SMILES | VACV mCherry inh | Vaccinia Venus
CCCCCn1c(SCc2ccncc2)nc2cc(C(=O)NCc3ccco3)ccc2c1=O | ? | ?
O=C(c1ccc(S(=O)(=O)N2CCCCCC2)cc1)N1CCN(c2ccccc2)CC1 | -22% | -4%
CCN(C(=O)Cn1nc(Cc2cccnc2)c2ccccc2c1=O)c1ccccc1F | -18% | -4%
Cc1ncsc1C(=O)N1N=C2/C(=C/c3ccccc3)CCCC2C1c1ccccc1 (stereo not drawn) | -24% | -14%
COc1ccc(OC)c(CCNC(=O)c2sc3nc4n(c(=O)c3c2C)CCC4)c1 | -17% | -14%
Cc1ccc(C)c(NC(=S)N2CCC(NC(=O)c3cccc(F)c3)CC2)c1 | -4% | -5%
C[C@@H](C(=O)Nc1ccccc1N1CCOCC1)N1C(=O)C2CC=CCC2C1=O (stereo partly drawn) | · | -16%
Cc1ccccc1C(=O)/C(C#N)=N/Nc1c(C)n(C)n(-c2ccccc2)c1=O | ? | ?
CS(=O)(=O)c1ccc(-c2cccc(NC(=O)c3ccco3)c2)nn1 | -28% | ?
S=c1[nH]nc(COc2cccc(Cl)c2)n1Cc1ccccc1 | i | -9%
CCOC(=O)c1c(C)c(C(=O)NC2CCCCC2)c(C)n1CC | ? | -7%
Cc1ccc(/C=N/NC(=O)CNC(=O)COc2ccccc2)o1 | -5% | -9%
CCC1CCCCN1S(=O)(=O)Cc1ccccc1Cl (stereo not drawn) | ? | -8%
Nc1cc(Cl)nc(N/N=C/c2ccccc2[N+](=O)[O-])n1 | -6% | -17%
CCOC(=O)Cn1c2ccccc2c2nc(C)sc21 | i | -3%
COc1cccc(C(=O)N2CCSC2=S)c1 | -30%[1.46 µM] | -21%
C=CCOc1cccc(CNn2nnnc2N)c1 | -25% | -3%

Continuation.
SMILES | VACV mCherry inh | Vaccinia Venus
COc1ccc2c(c1OC)C(=O)OC2CC(=O)O (stereo not drawn) | -3% | 1%
CCN(CC)C(=O)Cn1cc(S(=O)(=O)CC(=O)NC2CCCCC2)c2ccccc21 | i | -6%
O=C(O)c1cccn2c(=O)c3ccccc3nc12 | 9% | 10%
O=C(Cc1c(F)cccc1Cl)NCCN1CCOCC1 | i | -6%
CC(=O)c1cccc(-c2ccnc3c2CC(C(=O)Nc2ccc(Cl)cc2)O3)c1 (stereo not drawn) | -6% | -26%
